ALR H2O2 inh: blocks human ALR sulfhydryl oxidase activity. purified ALR, DTT oxidation, H2O2 HRP-luminol luminescence. inhibition, % (concentration not given with the values). 290,000 tested, 3.8% active. AID 485317;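 active means mean and each replicate at 75% or more; inconclusive means only one of the two met; inactive means neither met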;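 further: stock transfer was 7.5 nL into about 7.5 µL; 0% = neutral wells and 100% = wells with inactivated enzyme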
Target sequence (P55789 whole entry, looked up): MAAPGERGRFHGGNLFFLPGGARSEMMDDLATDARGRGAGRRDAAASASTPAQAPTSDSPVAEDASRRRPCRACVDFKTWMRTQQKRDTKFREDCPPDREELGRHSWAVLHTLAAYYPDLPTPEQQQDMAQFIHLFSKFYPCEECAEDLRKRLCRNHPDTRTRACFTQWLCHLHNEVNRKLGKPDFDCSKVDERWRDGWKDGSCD
Beta2AR agonist: human beta-2 adrenergic receptor agonism by FAP | response, % (no concentration beside the values) | P07550 | 340,000 tested, 0.43% active | AID 504454 | Am2.2-beta2AR cells, FAP receptor internalization, flow cytometry; reference of the scale not given here;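 active means response above a set limit, near 3 SD of response in nonfluorescent compounds, cut at about 42% in these data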;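 further: stock transfer was 100 nL into about 11 µL; a reference agonist was the positive control; negative values mostly stem from fluorescent compounds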
Target sequence (P07550 whole entry, looked up): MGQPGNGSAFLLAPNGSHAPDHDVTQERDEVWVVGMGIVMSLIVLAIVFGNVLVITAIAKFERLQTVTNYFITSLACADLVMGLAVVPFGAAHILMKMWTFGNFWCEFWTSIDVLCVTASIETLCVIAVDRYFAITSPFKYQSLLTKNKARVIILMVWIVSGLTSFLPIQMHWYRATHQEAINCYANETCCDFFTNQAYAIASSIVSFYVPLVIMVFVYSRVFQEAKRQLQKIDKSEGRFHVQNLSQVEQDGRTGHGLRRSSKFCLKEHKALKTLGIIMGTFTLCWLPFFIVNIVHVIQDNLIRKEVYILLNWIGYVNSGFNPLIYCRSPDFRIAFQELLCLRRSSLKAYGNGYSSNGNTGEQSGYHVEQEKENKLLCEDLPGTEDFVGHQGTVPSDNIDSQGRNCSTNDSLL
Bfl-1 A1 inh: inhibitors of the anti-apoptotic protein A1, read as caspase activation; AID 2462; 330,000 tested, 0.066% active; caspase activation, % (no concentration beside the values); MEF A1-2A-BIM cells, Caspase-Glo 3/7 luminescence, 3 h; percent of clofoctol response, vehicle zero;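 active means over half of replicate activation scores above 10%, or exactly half above 10 with the replicate mean above 10; inconclusive means replicate mean below 10 yet half the replicates above 10; inactive means over half of replicates below 10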;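 further: wells of about 30 µL received 50 nL stock; many hits fall short of the cut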
rRNA inh HTS: inhibitors of bacterial rRNA selective over humanized ribosomes. E. coli WT GFP vs humanized-ribosome RFP mutants, fluorescence, 24 h; hits give low values; DMSO median 0, no signal -100. GFP signal change (wild-type ribosome), % (concentration not given with the values). 350,000 tested, 1.6% active. AID 720706;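 active means significant combined selectivity score with lowered wild-type GFP, culture density cut under 30%, mutant RFP and density less affected; inactive means any of these conditions unmet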; further: one replicate is shown; some compounds called inactive have numbers as strong as hits
Calb FLC: affects C. albicans growth with fluconazole; C. albicans CaCi-2 (fluconazole-resistant clinical isolate) + fluconazole, Alamar Blue growth, 48 h; growth inhibition, % (no concentration beside the values); 300,000 tested, 0.57% active;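 active means most replicates above 75%; inconclusive means exactly half above 75%; inactive means most below 75%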;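 further: all wells also contain fluconazole at 8 µg/ml as a sub-toxic cotreatment; 0% = median of DMSO wells and 100% = median of geldanamycin control wells; wells of about 8 µL received 7.5 nL stock; the first replicate is given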
LANA-H2B inh: blocks KSHV LANA binding to histone H2A/H2B; Q9QR71; cell-free LANA-H2A/H2B peptide, fluorescence polarization; inhibition, % (test concentration not listed); 320,000 tested, 0.6% active; in the data active means inhibition mostly above about 10%, no sharp cut-off; inactive means mostly below about 6.7%;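 further: stock transfer was 7.5 nL into about 10 µL; 0% = median of vehicle wells and 100% = median of positive control wells; one replicate is shown; the record names a cut of 25% in any replicate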
T cruzi repl: T. cruzi replication inhibition | 300,000 tested, 1.4% active | AID 1885 | T. cruzi beta-gal in NIH3T3, luminescence, 90 h | inhibition, % (concentration not given with the values);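 active means mean inhibition across valid replicates above about 55%, limit read from the data; inconclusive means mean below that limit but half or more replicates reach it; inactive means mean below it, under half of replicates reach it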;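 further: signal also drops with host cell toxicity which is not excluded here; 0% = plate median of DMSO wells and 100% = zero luminescence signal; higher percent means less beta-gal luminescence so fewer parasites; stock transfer was 50 nL into about 50 µL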
Beta cell apopt: blocks beta cell apoptosis | INS-1E cytokine-induced death, ATP luminescence, 48 h; percent of positive-control rescue, neutral wells zero | protection from apoptosis, % (concentration not given with the values) | 300,000 tested, 0.8% active;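 active means all replicates at 75% or more, or half of them and the mean; inconclusive means half reach 75% but not the mean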;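 further: 0% = cytokine-treated negative control wells and 100% = positive control rescue; higher means more ATP so stronger rescue from cytokine killing; wells of about 40 µL received 100 nL stock; the first replicate is given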
rRNA inh HTS OD600: recorded beside rRNA inh HTS, whose call it bears; OD600 change, %; measured here: OD600 growth;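 optical density of the mix in the first replicate; 0 = DMSO median and -100 = no signal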
rRNA inh HTS RFP: also measured in rRNA inh HTS; calls as there; RFP signal change, %; measured here: RFP humanized mutant strains;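 first replicate; 0 = DMSO median and -100 = no signal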
Starred values were filed as active, the others as inactive; ? = inconclusive; · = not tested or not shown. The list is partial; rates above refer to the full screens.

SMILES	ALR H2O2 inh	Beta2AR agonist	Bfl-1 A1 inh	rRNA inh HTS	rRNA inh HTS OD600	rRNA inh HTS RFP	Calb FLC	LANA-H2B inh	T cruzi repl	Beta cell apopt
Cc1cc2ccccc2c(=O)n1CC(=O)NC1CCCCCC1	-11.3	-0.3	-0.6	·	·	·	-4.0	-1.9	-10.5	-2.8
CC1=CC(C)(C)N(S(=O)(=O)c2ccc(C)cc2)c2ccc(C)cc21	-2.6	15.7	1.4	·	·	·	8.9	-8.1	42.5	·
Cc1ccc(S(=O)(=O)Nc2cccc(NC(=O)CN3CCCCC3)c2)cc1	·	4.5	-0.5	·	·	·	1.7	3.0	-11.2	1.2
COc1ccc(S(=O)(=O)N2CCN(C(=S)NCCc3ccccc3)CC2)cc1	-2.0	-13.2	0.9	-24.6	-25.2	1.2	-1.8	4.0	9.1	-5.0
O=C(NC1CCCC1)C(c1cccnc1)N(Cc1ccccc1)C(=O)c1csnn1 (stereo unspecified)	-17.2	-9.0	0.2	0.5	4.7	-0.6	-1.7	2.6	-5.2	-3.5
CCN(CC)S(=O)(=O)c1ccc2c(c1)nc(SC(C)C(=O)NCC1CCCO1)n2CC (stereo unspecified)	-7.7	13.8	-0.1	9.2	4.3	0.0	-4.8	-5.3	8.4	1.6
Cc1c(NC(=O)COC(=O)c2ncc(Cl)c(Cl)c2Cl)c(=O)n(-c2ccccc2)n1C	0.2	1.9	-0.7	3.8	0.4	0.9	-4.8	-7.1	-15.9	-0.8
COc1ccc(/C=N/n2cnc3c([nH]c4ccc(F)cc43)c2=O)cc1CN1CCCC1	·	7.0	0.1	-8.0	-2.9	0.2	-0.3	0.5	37.3	5.7
C=CCNC(=O)c1ccc(CN(c2ccc(OCC)cc2)S(=O)(=O)c2ccc(C)cc2)cc1	·	2.9	0.4	0.5	3.3	-1.7	4.1	4.4	38.0	-1.1
Cc1nn(Cc2cccc(C(=O)Nc3ccn(Cc4ccccc4F)n3)c2)c(C)c1[N+](=O)[O-]	-6.8	1.6	0.8	·	·	·	10.7	7.8	26.9	4.1
O=C(CN1C(=O)C2CC=CCC2C1=O)OCc1cc(=O)n2cc(Br)ccc2n1 (stereo unspecified)	-5.5	-13.8	-0.3	14.2	1.3	-1.1	3.2	1.2	-2.4	0.2
C[C@]12CC[C@@H]3c4ccc(O[C@@H]5O[C@H](C(=O)O)[C@@H](O)[C@H](O)[C@H]5O)cc4CC[C@H]3[C@@H]1C[C@@H](O)[C@@H]2O	56.0	-1.3	-0.3	5.0	10.4	0.4	10.3	-6.6	-30.9	1.4
O=C(Nc1ccc(-c2nc3ccccc3s2)c(OC(=O)c2ccccc2)c1)c1ccccc1	-3.5	2.1	-3.6	·	·	·	-19.2	2.4	-6.5	9.3
O=C(CCN1C(=O)C2CCCCC2C1=O)Nc1ccc(Br)cc1F (stereo unspecified)	-2.5	4.1	0.3	0.1	3.2	0.5	3.7	1.7	-10.3	-3.4
CCc1cc(C(=O)N2CCN(c3ncccn3)CC2)sc1C	-0.8	3.8	-0.2	-13.6	-12.9	-1.2	10.8	1.5	-8.9	-2.6
CCOC(=O)c1cc(CC)sc1NC(=O)COC(=O)c1cc[n+]([O-])cc1	-3.3	-2.3	1.4	3.7	2.6	-0.8	-2.6	-12.2	-0.4	-1.4
COc1ccccc1N1C(=O)c2cccc3cccc(c23)C1=O	-4.6	6.2	0.0	11.7	15.5	0.3	40.4	3.5	-8.3	·
CCc1ccc(N=c2c([N+](=O)[O-])nn(-c3ccc4c(c3)OCCO4)n2O)cc1	-13.8	1.5	0.0	-3.0	1.1	3.8	-2.1	-10.8	61.8*	7.1
O=C(Nc1cccc(S(=O)(=O)N2CCCCC2)c1)C1CCCC1	-1.9	-8.6	-0.6	2.7	0.8	1.6	·	-4.9	·	-5.0
CCc1ccc(C(=O)Nc2cc3c(cc2Cl)OCCCO3)cc1	-0.4	3.7	0.3	·	·	·	0.4	5.7	-0.7	-7.2
O=c1c2ccccc2nc2n1-c1ccccc1CCC2	-1.8	4.8	0.9	·	·	·	-16.2	4.1	-2.9	-1.7
Cc1nccc(-c2cccc(NC(=O)Nc3ccc(Cl)cc3)c2)n1	5.2	6.0	-0.3	-5.7	-0.9	4.6	-0.1	-2.7	35.4	-3.5
O=C(Nc1cc(Cl)ccc1-n1cncn1)c1ccc([N+](=O)[O-])o1	-55.8	16.5	-0.6	-21.3*	7.4*	-1.9*	46.6	-5.4	38.3	-15.7
O=c1c(Cl)c2oc3ccccc3nc-2c2ccccc12	-11.1	-89.7	-0.2	·	·	·	34.9	0.7	-20.3	85.5*
C/C(=N/NS(=O)(=O)c1ccc(C)c(C)c1)c1ccncc1	-61.3	-0.5	1.2	8.7	10.1	2.5	2.8	-4.8	-5.9	-6.3
COC(=O)c1ccccc1NC(=S)NC(=O)c1ccccc1	98.2*	4.0	0.4	·	·	·	-4.4	-1.6	-4.2	3.3
O=C(COc1ccc(F)cc1Br)NCC1COc2ccccc2O1 (stereo unspecified)	-3.3	-15.8	-1.2	·	·	·	·	5.4	·	-1.9
COc1cc([N+](=O)[O-])ccc1NC(=O)CSc1nccn1C	51.7	-13.1	0.0	8.7	1.2	1.9	-3.2	-1.4	-5.9	-5.9
N/C(=N\OC(=O)COc1ccc2ccccc2c1)c1ccncc1	-11.7	3.7	0.1	·	·	·	14.1	-4.4	18.3	·
CCOC(=O)CCNCC1COc2ccccc2O1 (stereo unspecified)	·	-1.5	1.1	·	·	·	19.2	1.3	1.0	4.0
C=CC(=O)NC(C)(C)CCN1CCOCC1	·	-1.4	-1.3	15.4	11.4	-0.9	8.7	4.7	-18.3	-3.0
Cc1cccc(CNC(=O)c2ccc3nc(Cc4ccccc4F)oc3c2)n1	-11.2	-3.4	-0.8	-13.4	-18.5	1.3	0.9	3.9	9.7	·
COc1cccc(/C=C/C(=O)c2ccc3c(c2)OCO3)c1OC	·	12.3	0.6	4.9	-1.3	-11.3	·	-6.4	·	-8.1
Cc1ccc(Cl)cc1N1CCN(CC(=O)Nc2ccc(CN3CCCCC3)cc2)CC1	-1.7	37.3	0.7	-48.8	-71.1	-6.7	16.6	-6.5	54.9*	13.0
O=C1N=C(N2CCN(c3cccc4ccccc34)CC2)S/C1=C/c1cccs1	-9.6	1.2	0.5	·	·	·	15.7	-2.6	17.3	-1.9
CCn1cc(S(=O)(=O)CC(=O)Nc2ccc(C)cc2)c2ccccc21	9.3	-1.7	-0.4	·	·	·	21.9	0.5	-2.7	-5.5
COc1ccccc1CC1(C)NC(=O)N(CC(=O)N2CCc3ccccc3C2)C1=O (stereo unspecified)	-18.2	7.7	0.0	·	·	·	-3.3	-4.5	7.1	0.4
O=C(COC(=O)Cn1cnc2ccccc2c1=O)NCCC1=CCCCC1	-4.0	8.4	1.1	5.0	1.5	2.2	-0.2	-0.1	-10.0	-2.4
CN1CCc2c(sc(/N=C/c3cc(C(C)(C)C)ccc3O)c2C#N)C1	18.0	10.2	1.3	5.1	0.1	-1.0	-11.4	6.1	-10.6	-4.0
Cc1cccc(N2C(=O)CC(N3CCC(c4nc5ccccc5[nH]4)CC3)C2=O)c1 (stereo unspecified)	-1.2	2.1	0.5	·	·	·	?	-1.6	-8.6	1.9
Nc1nnc(SCc2ccccc2F)s1	-6.8	1.3	1.4	-2.2	-7.4	-11.5	1.6	-7.0	-3.1	-2.9
O=C(c1ccc(Br)o1)N1CCN(C/C=C/c2ccccc2)CC1	·	2.8	0.2	·	·	·	-11.1	-2.3	4.7	-3.3
O=C(COC(=O)c1ccccc1NCCO)Nc1cccc(S(=O)(=O)NC2=NCCCCC2)c1	-1.5	1.4	0.2	2.7	3.2	0.4	-6.7	0.7	4.4	2.3
CC1=C(C)CC(C(=O)c2ccccc2)C(C(=O)O)C1 (stereo unspecified)	·	4.3	0.3	1.1	5.7	-0.4	-4.8	1.8	2.2	1.2
COc1ccccc1NC(=O)C(C/C=C(/C)Cl)C(C)=O (stereo unspecified)	13.7	-5.8	0.1	·	·	·	-3.4	1.0	-9.8	0.9
Cc1ccc(C)c(SCC(=O)OCC(=O)NCc2ccccc2)c1	-18.5	0.1	-0.2	-2.3	-13.4	-2.1	-7.5	1.4	-12.3	-1.1
Cc1sc2ncnc(N3CCC(C(=O)N(C)CC(=O)Nc4ccccc4Br)CC3)c2c1C	0.6	11.5	0.1	-33.4	-45.3	-7.8	11.0	-1.8	15.8	-2.0
COc1ccc(CC(=O)NCc2cn3ccsc3n2)cc1	-11.3	-8.2	-0.1	·	·	·	-1.5	-0.9	1.4	-3.3
Cc1[nH]c(SCC(=O)Nc2cc(C(N)=O)cc(C(N)=O)c2)nc1Cc1ccccc1	97.1*	-0.1	2.8	16.2	9.8	2.0	·	-0.9	·	-0.5
O=C(N/N=C/c1ccco1)c1cc(C2CC2)nc2ccccc12	-10.0	·	-0.7	3.2	3.0	2.2	-5.4	-4.3	-6.7	-7.4
Cc1cc(-c2onc(C)c2C(=O)Oc2ccc(Cl)cc2)no1	-0.7	0.0	1.1	-14.7	-2.2	-6.9	1.0	2.5	-1.7	35.8
O=C(Oc1cccc([N+](=O)[O-])c1)c1cc(-c2ccccc2)nc2ccccc12	-0.5	9.4	-0.2	·	·	·	17.1	4.4	-23.4	5.4
CC(C)S(=O)(=O)N1CCCC(C(=O)c2cccc(Cl)c2)C1 (stereo unspecified)	-3.7	-10.5	1.0	-9.5	-9.6	0.7	15.0	6.2	2.8	-6.0
CSc1nc(N(C)C)nc(N2CC(=O)N(CCNS(=O)(=O)c3ccc(C)cc3)C2=N)n1	-11.9	3.9	0.2	-10.3	0.0	-2.4	-4.2	-4.3	18.4	2.4
COc1ccc(OC)c(NC(=O)C2CCCC2)c1	-0.1	0.0	2.2	·	·	·	15.3	-0.8	2.4	-4.3
CCCSc1ncc(Cl)c(C(=O)Nc2ccc(S(=O)(=O)Nc3ncccn3)cc2)n1	1.5	-0.7	-0.4	9.4	-0.4	1.7	-1.9	-4.0	-2.6	-2.9
CC(C)(CO)NCC(O)COc1ccc2c(c1)CCC2 (stereo unspecified)	8.2	-7.4	-0.8	·	·	·	-2.7	-2.7	-9.1	-5.7
Cc1noc(C)c1COc1ccc(C(=O)N2CCN(c3ccccc3F)CC2)cc1	0.6	4.1	0.3	-25.4	-22.3	-1.1	-0.5	-3.9	10.4	·
CCn1ncc(Br)c1C(=O)Nc1cc([N+](=O)[O-])ccc1C	-20.2	-16.2	-0.1	-2.9	2.0	-2.4	9.9	-2.5	-6.8	-0.1
Cc1ccc(Sc2c(C=O)c3ccccc3n2C)cc1	-0.7	2.4	-1.8	·	·	·	2.5	-3.1	7.2	-7.2

High-throughput results: PubChem, several laboratories
